Bioassay records deposited in PubChem by National Center for Advancing Translational Sciences (NCATS).
Vaccinia Venus – vaccinia inhibition (Venus reporter) | Vaccinia virus Venus reporter expression, fluorescence | Potency, µM (series often up to 36.5 µM), without a hit: at the top dose activity change, negative = inhibition, hits mostly inhibitors | hit rate 0.46% among 330,000 | AID 720580; active means well fitted inhibition curve with a large enough effect; inconclusive means small, poorly fitted or top-dose-only effect; inactive means no such curve, though single readings can be large or run the other way; tested in A549 cells; note: nearly all actives have a fitted effect of over 30% in size; inactives centre near -10
Vaccinia mCherry – vaccinia inhibition (mCherry reporter); Vaccinia virus mCherry reporter infection, fluorescence; about a quarter of the inactives have no number; Potency, µM (series often up to 36.5 µM), for inactives: top-dose activity change, negative = inhibition, most hits filed as inhibitors; hit rate 0.63% among 310,000; active = well fitted inhibition curve with a large enough effect; inconclusive = small, poorly fitted or top-dose-only effect; inactive = no such curve, though single readings can be large or run the other way; tested in A549 cells; note: nearly all actives have a fitted effect of over 35% in size; inactives centre near -10
* = called active by the depositor; i = inactive; u = inconclusive; x = not tested or not shown; & = joins results of further samples; [ ] = remark or other dose. % is set by controls: 0 for no effect and ±100 for the full control effect; potency is the fitted concentration of half-maximal effect.

SMILES | Vaccinia Venus | Vaccinia mCherry
Cc1ccc(CC(=O)OCCNC(=O)c2cccnc2)cc1 | -1% | -6%
Cc1ccccc1NC(=O)CSc1nc2ccc(NC(=O)CCc3ccccc3)cc2s1 | -15% | -17%
CC(C)c1ccc(NC(=O)COC(=O)COc2ccccc2)cc1 | 0% | i
CCOC(=O)CNS(=O)(=O)c1ccc(C(=O)O)cc1 | -15% | -19%
COc1cc(N2C(=O)CC(=O)NC2=O)cc(OC)c1OC | -11% | -16%
CCCCCCNC(=O)O[C@H]1Cn2c(=O)ccc(=O)n2[C@@H]2CN(S(=O)(=O)c3ccc(C)cc3)C[C@]12O | 10µM* | u
Cc1cccnc1NC(=O)c1cccc(S(=O)(=O)N2CCCc3ccccc32)c1 | -24% | -2%
COc1ccc(C)cc1NC(=O)N1CCN(c2cc(-c3noc(C)n3)ccc2C)CC1 | -14% | -13%
S=C(NNc1nc(Nc2ccccc2)nc(N2CCCCC2)n1)NC1CCCCC1 | -9% | -16%
C=CCn1c(SCC2CCCCO2)nc2sc(CC)cc2c1=O (configuration not stated) | 0% | -19%
COc1ccc(C(=O)O/N=C(\N)c2ccccn2)cc1[N+](=O)[O-] | -19% | i
CCOC(=O)C(=O)Nc1ccccc1C(N)=O | -4% | x
CCCCn1c(N)c(N(CCOC)C(=O)c2ccc(F)c(S(=O)(=O)N3CCOCC3)c2)c(=O)[nH]c1=O | -5% | -5%
CC(C)N(C(=O)[C@H]1CC(CC(=O)NCc2ccco2)C(=O)N2CCc3c([nH]c4ccccc34)[C@]12C)C(C)C (some centres not stated) | u | -17%
C[C@H](NC(=O)c1ccco1)C(=O)OCC(=O)N1CC(=O)Nc2ccccc21 | -7% | i
Cn1c(CN2CCCCC2)nc2cc(NC(=O)c3cccc(Br)c3)ccc21 | u | -5%
CCC(C)NS(=O)(=O)c1ccc(OCC(=O)Nc2ccc3c(c2)OCCO3)cc1 (configuration not stated) | -4% | -19%
Cc1cc(NS(=O)(=O)c2ccc(NC(=S)NC(=O)c3ccc(F)cc3Cl)cc2)no1 | 2% | -1%
Cc1ccc(O)c(CNc2nccs2)c1 | -19% | u
Cc1cccc(N(CC(=O)Nc2ccc(CC#N)cc2)S(C)(=O)=O)c1 | -5% | -13%
CCCCCNC(=O)C(c1cc2ccccc2o1)n1c(=O)c(-c2ccccc2)nc2ccccc21 (configuration not stated) | -9% | -23%
CC1=CC(C)(C)Nc2ccc(C)cc21 | -2% | i
Cn1nnc(NC(=O)c2ccc([N+](=O)[O-])cc2Cl)n1 | 0% | 0%
CC(=O)Oc1ccc2nc(-c3ccco3)oc(=O)c2c1 | -13% | -7%
Cc1nccn1CCCN1C(=O)OC2(CCCCC2)C1(C)O (configuration not stated) | 1% | -13%
c1ccc(-c2nnc(CSc3nncs3)o2)cc1 | 3% | x
CCOCCCN1C(=O)c2ccccc2CC1(C)C(=O)NC1CCCCC1 (configuration not stated) | -5% | 3%
COc1cccc(NC(=O)CCc2ccccc2)c1 | -15% | -6%
O=C(NCc1nc2ccccc2[nH]1)C1=C[C@H](c2ccc(C(F)(F)F)cc2)C[C@H](OCc2ccc(CO)cc2)O1 | u | -5%
CCCN(CCC)CCCNC(=O)c1cc2cc3ccc(Cl)cc3nc2o1 | -9% | -27%
COc1ccc(C(=O)N2CCN(c3ccc(NC(=O)c4cccs4)cc3)CC2)cc1 | -15% | -2%
CC(C)CNC(=S)N(CCCO)Cc1cc2cc3c(cc2[nH]c1=O)OCO3 | -21% | -3%
CCOc1cc(C(=O)OCC(=O)NC(C)c2ccccc2)ccc1OCC(=O)N1CCOCC1 (configuration not stated) | -15% | -4%
COC(=O)[C@@]12CCCCN1[C@H](c1ccc(-c3cccc(Cl)c3)c(OC)c1)[C@H]1C(=O)N(C)C(=O)[C@H]12 | u | -12%
CC1(C(=O)NS(=O)(=O)c2ccc3c(c2)CCO3)CCN1C(=O)CCC1CCCC1 (configuration not stated) | -3% | -12%
CCc1ccc2c(CC(=O)Nc3nnc(C4CC4)s3)coc2c1 | -20% | -1%[1.46 µM]
CSc1cccc(CN2CCCC(C(=O)Nc3cccc(-n4cccn4)c3)C2)c1 (configuration not stated) | -28% | -8%
Cc1ccc(C23CC4CC(CC(C(=O)N(C)C)(C4)C2)C3)cc1 | -1% | -2%
CC1CCCC(NC(=O)CN2CCN(Cc3ccc(Cl)cc3)C2=O)C1C (configuration not stated) | u | x
O=C(c1ccccc1)N(CCO)Cc1cc2cc3c(cc2[nH]c1=O)OCCO3 | 4% | 5%

Reprinted from the part before: six entries; new compounds follow.
SMILES | Vaccinia Venus | Vaccinia mCherry
CC1(C(=O)NS(=O)(=O)c2ccc3c(c2)CCO3)CCN1C(=O)CCC1CCCC1 (configuration not stated) | -3% | -12%
CCc1ccc2c(CC(=O)Nc3nnc(C4CC4)s3)coc2c1 | -20% | -1%[1.46 µM]
CSc1cccc(CN2CCCC(C(=O)Nc3cccc(-n4cccn4)c3)C2)c1 (configuration not stated) | -28% | -8%
Cc1ccc(C23CC4CC(CC(C(=O)N(C)C)(C4)C2)C3)cc1 | -1% | -2%
CC1CCCC(NC(=O)CN2CCN(Cc3ccc(Cl)cc3)C2=O)C1C (configuration not stated) | u | x
O=C(c1ccccc1)N(CCO)Cc1cc2cc3c(cc2[nH]c1=O)OCCO3 | 4% | 5%
CCOc1ccc(S(=O)(=O)N(C)c2ccc(OCC(=O)Nc3nc4ccccc4s3)cc2)cc1 | u | u
CCOC(=O)c1cc2cc([N+](=O)[O-])cc(OC)c2oc1=O | -8% | -1%
CC(C)(C)CN1C(=O)C(=O)NC[C@@H]1CC1CCCCC1 | -2% | 2%
O=C(/C(=C/c1ccccc1Cl)c1ccccc1)N1CCOCC1 | -8% | i
Cc1coc2c1c(C)cc1oc(=O)c(CC(=O)NCCc3ccc(Cl)cc3)c(C)c12 | -2% | -11%
O=C(COC(=O)c1ccc(F)cc1F)Nc1cc(S(=O)(=O)N2CCOCC2)ccc1Cl | -2% | -19%
O=C(C1CCCO1)N1CCN(C(=S)Nc2ccc(Cl)cc2Cl)CC1 (configuration not stated) | u | i
CN(C1CCCCC1)S(=O)(=O)c1ccc2c(c1)c(=O)c(C(=O)NCc1ccc(Cl)cc1)cn2C | -16% | -24%
O=C(CSc1n[nH]c(-c2ccc(F)cc2)n1)NCc1ccccc1Cl | -12% | -20%
CCOC(=O)N1CCC(NC(=O)c2ccc3c(c2)N(Cc2ccc(F)cc2)CCS3)CC1 | -18% | -19%
CC(=O)Nc1ccc(NC(=O)Nc2cc(C)cc(C)c2)cc1 | -6%[7.34 µM] | -15%[7.34 µM]
CC(=O)c1ccc(OC(=O)N(c2ccccc2)c2ccccc2)cc1 | -15% | x
Cc1sc2ncnc(NCC3(N4CCOCC4)CCCCC3)c2c1C | -3% | x
Cc1ccc(NC(=O)Cn2c(=O)n(CCc3ccccc3)c(=O)c3sc4ccccc4c32)cc1C | -5% | -8%
CCCc1nnc(NC(=O)CCC(=O)Nc2ccc(F)cc2)s1 | -7% | -11%
CCn1c(SCC(=O)N2CCCc3ccccc32)nc2cccnc21 | -17% | -13%
COC(=O)C[C@@H]1C=C[C@H](NC(=O)Nc2ccc(OC)cc2)[C@@H](CO)O1 | -9% | -14%
COc1ccccc1NC(=O)Cn1c(CCC(=O)O)ccc1-c1ccccc1 | -6% | -27%
COc1cc(C2c3c(oc4ccc(F)cc4c3=O)C(=O)N2c2nc(C)c(C)s2)cc(OC)c1OC (configuration not stated) | -2% | -6%
CCOc1ccccc1N1CCN(C(=O)Cc2ccc(S(=O)(=O)N3CCOCC3)s2)CC1 | -18% | -16%
Cc1cc(C)c2cc(C#N)c(NCCNC(=O)c3ccncc3)nc2c1 | -2% | 1%
COCCSc1nnc(-c2cnccn2)o1 | 0% | -5%
COc1cccc(C(=O)NCC(=O)OC(C)C(=O)NC23CC4CC(CC(C4)C2)C3)c1 (configuration not stated) | 3% | i
COc1ccccc1/C=C/C=N/NC(=O)c1cc(-c2ccco2)[nH]n1 | 7%[7.34 µM] | i[7.34 µM]
CCOc1ccccc1N(CC(=O)N1CCC(C)CC1)S(=O)(=O)c1ccc(C)cc1 | -13% | i
COc1ccc(NC(=O)NNC(=O)COc2ccc([N+](=O)[O-])c(C)c2)cc1OC | -7% | -7%
Cc1cccc2cccnc12 | -8% | -14%
COC(=O)c1ccc(CSc2nnc(NC(=O)C3CC(=O)N(Cc4ccc(C)cc4)C3)s2)cc1 (configuration not stated) | -14% | -22%
COc1ccc(C(CC(=O)O)NC(=O)OC(C)(C)C)cc1 (configuration not stated) | -1% | i
Cn1c(-c2ccc(F)cc2)cnc1SCC(=O)Nc1ccccc1 | -19% | -23%
CC(C)(O)C#Cc1ccc(CN2CCc3nnc(CNC(=O)c4cccc(F)c4)n3CC2)cc1 | 1% | -1%
Cc1[nH]n(-c2ccccc2)c(=O)c1N=Nc1ccccc1O | 435%[activator] | -4%
Cc1cccc(NS(=O)(=O)c2ccc(NC(=O)N3CCCC3)cc2)c1 | -5% | -14%
Cc1ccccc1OC(=O)CSc1nnc(-c2ccc(F)cc2)o1 | -11% | -13%
COc1cccc(/C=N/NC(=O)CC2C(=O)NN=C2C)c1OC (configuration not stated) | -3% | -13%
Cc1ccc(NC(=O)c2cc(C)nn2-c2ccccc2)cc1 | -12%&-7% | -12%
Cc1cc(C)[n+](Cc2ccccc2)cc1C(N)=O | -12% | i
Cc1ccn2c(-c3csc(Nc4ccc(C(=O)O)cc4)n3)c(C)nc2c1 | -8% | -11%
CN(C)c1cc(-c2ccc(F)cc2)oc(=O)c1Cl | -10% | -12%
COc1ccc(C(=O)N2CCc3ccccc3C2)cc1S(=O)(=O)N1CCCC1 | -21% | -14%
Cc1nn(C2CCS(=O)(=O)C2)c(Cl)c1/C=C/C(=O)OCC(=O)c1c[nH]c2ccccc12 (configuration not stated) | -17% | -17%
Cc1onc(-c2ccccc2Cl)c1C(=O)Nc1ccccc1C(=O)NC(C)C | -22% | -15%
O=C1NC(=O)C2(C=C(c3ccccc3)C(O)(c3ccccc3)C2)N1 (configuration not stated) | -15% | -23%
COC(=O)c1ccc(N2C(=O)CC(N3CCN(c4ccccc4)CC3)C2=O)cc1 (configuration not stated) | -12% | x
Cc1cc(C)n2nc(SCCCC(=O)c3ccccc3)nc2n1 | -2% | -11%
Cc1ccc(S(=O)(=O)Cc2ccc([N+](=O)[O-])cc2)cc1 | -9% | -19%
COc1cccc(CN2CCN(C(=O)CCc3nnc(C4CCCCC4)o3)CC2=O)c1 | -15%[7.34 µM] | i[7.34 µM]
COc1ccc(-c2nnc(C3CCN(S(=O)(=O)c4cccc(Cl)c4)CC3)o2)cc1 | -11% | -10%
COc1cc2c(cc1OC)C(COc1ccccc1OC)N(C(=O)c1ccc(S(=O)(=O)N3CCCC3)cc1)CC2 (configuration not stated) | -7% | -10%
CC(C)(C)OC(=O)N1CCC(c2c(C(=O)Nc3cccc(C(F)(F)F)c3)cnn2-c2ccc(F)cc2F)CC1 | -12% | -5%
CN(Cc1nccs1)C(=O)C1CCC(=O)N(CCc2cccc(F)c2)C1 (configuration not stated) | -18% | -2%
O=C(Nc1ccccc1NC(=O)c1ccco1)c1ccccc1 | -14% | 7%
COc1ccc(NC2c3ccccc3C(=O)N2Cc2ccccc2Cl)cc1OC (configuration not stated) | -13% | u
O=C(CCSCc1ccccc1F)NCc1cccs1 | -10% | i
Cc1ccc(S(=O)(=O)Nc2ccc3c(c2)OCCO3)cc1 | -4% | 0%
O=C1/C(=C/c2ccc3c(c2)OCO3)Oc2cc(OCC(=O)N3CCC[C@H]3C(=O)O)ccc21 | -12% | -13%
COc1nc(N(CC(N)=O)S(=O)(=O)c2ccccc2)nc(C)c1Cl | -10% | -20%
CCCCN(C)C1=Nc2cccc3cccc1c23 | -11% | -13%
CCN1CCN(C(=O)CCc2nnc(CCc3ccccc3OC)o2)[C@@H](C)C1=O | -6% | -13%
C[C@H](CO)N1C[C@H](C)[C@@H](CN(C)Cc2ccc3c(c2)OCO3)Oc2c(NC(=O)Cc3ccccc3)cccc2C1=O | -29% | i
Cc1ccc(OCC(O)CN2CCN(Cc3ccc4c(c3)OCO4)CC2)cc1C (configuration not stated) | -21% | -6%
COc1ccccc1-c1cc(C(=O)NC2CCN(C)CC2)c2ccc(Cl)c(C)c2n1 | -7% | -10%
CCN1C(=O)[C@@H]2[C@H](C1=O)[C@@H]1C(=O)Nc3ccccc3C(=O)N1[C@@H]2c1ccc(Br)cc1 | -10% | i

Five of these compounds in a different format.
Each structure is followed by: Vaccinia Venus | Vaccinia mCherry
- COC(=O)c1ccc(N2C(=O)CC(N3CCN(c4ccccc4)CC3)C2=O)cc1 (configuration not stated)
 : -12% | x
- Cc1cc(C)n2nc(SCCCC(=O)c3ccccc3)nc2n1
 : -2% | -11%
- Cc1ccc(S(=O)(=O)Cc2ccc([N+](=O)[O-])cc2)cc1
 : -9% | -19%
- COc1cccc(CN2CCN(C(=O)CCc3nnc(C4CCCCC4)o3)CC2=O)c1
 : -15%[7.34 µM] | i[7.34 µM]
- COc1ccc(-c2nnc(C3CCN(S(=O)(=O)c4cccc(Cl)c4)CC3)o2)cc1
 : -11% | -10%
